# TAR Tat displ: HIV-1 TAR-Tat binding disruption; z-score (no concentration beside the values); actives 0.6% (n = 100,000); HIV-1 TAR RNA, Tat peptide displacement FRET; active compounds read high; AID 1259389;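 further: score is relative to mean and SD of negative controls; some compounds called inactive have numbers as strong as hits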
# CDC25B-CDK2 inh: human CDC25B-CDK2/CyclinA binding inhibition; actives 0.72% (n = 94,000); HTRF CDC25B-CDK2/CyclinA binding, anti-His/anti-Flag; active compounds read high; z-score (concentration not given with the values); P30305+P24941;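 further: score is relative to mean and SD of negative controls; strong numbers were not always called active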
# Starred values were filed as active, the others as inactive; / = not tested or not shown.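 How the source made its calls: active means z-score from 3 up in half or more of its runs; inactive means the rest.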
SMILES,TAR Tat displ,CDC25B-CDK2 inh
Cc1cccn2c(=O)c(C(=O)NC3CCCc4ccccc43)cnc12 (configuration not stated),1.7,/
Cc1ccc(-n2c(=O)c(C#N)cc3c(=O)n4cccc(C)c4nc32)cc1C,-0.9,-1.1
CC1(C)OC(=O)C(=Cc2ccc(-c3cc(C(F)(F)F)ccc3Cl)o2)C(=O)O1,/,0.09
Brc1ccc(CN2CCc3nc(N4CCN(c5ccccc5)CC4)ncc3C2)cc1,-4.1,/
O=C(CCSCc1cnn(-c2ccccc2)c1-n1cccc1)N1CCN(c2ccccn2)CC1,-0.46,-0.81
O=S(=O)(c1ccc([C@@H]2Nc3ccc(Br)cc3[C@@H]3C=CC[C@@H]32)cc1)N1CCOCC1,/,-3.5
CC1CC(=O)Nc2ccccc2N1S(=O)(=O)c1ccc(-c2cc(C(F)(F)F)on2)s1 (configuration not stated),/,0.77
Cc1ccc(NS(=O)(=O)c2c(C)nc3sccn3c2=O)cc1Cl,0.03,-0.36
N#Cc1c(C(F)(F)F)cc(C2CC2)[nH]c1=O,0.36,0.13
Cc1nc2ccc(Cl)cn2c(=O)c1NC(=O)COc1ccccc1,0.32,/
CCCOCCOC(=O)C1=C(C)NC2=C(C(=O)CC(C)(C)C2)C1c1ccncc1 (configuration not stated),1.6,/
O=c1[nH]nc2c(N3CCSCC3)nc3ccccc3n12,0.96,-1.1
CCOc1ccc2ncc(S(=O)(=O)c3ccc(C)c(C)c3)c(N3CCN(C)CC3)c2c1,1.4,-1.1
O=C(CSc1nc2ncccc2o1)Nc1nc2ccccc2s1,2.6,/
O=c1[nH]c(-c2cccs2)nc2c1Cc1cc(F)ccc1O2,3.9,-1.7
COc1ccc(/C=N/NC(=S)NC2CC(C)CC(C)(C)C2)cc1OCc1ccccc1 (configuration not stated),/,-1.2
O=C(O)[C@@H]1CSC(c2ccncc2)N1 (some centres not stated),/,-1.6
O=[N+]([O-])c1ccc(N2CCCCC2)cn1,0.76,1.3
CC1CCN(c2nc(-c3ccco3)c3c(c2C#N)CC(C)(C)OC3)CC1,-3,-0.79
CN(C)c1ccc(-c2nc3ncccn3c2NCc2ccccc2)cc1,-5.9,/
CCOC(=O)N1CCC(n2c(SCC(=O)OCc3ccccc3)nc3ccsc3c2=O)CC1,1.3,/
CCOC(=O)c1cc2ccccc2[nH]1,1.6,-0.46
COc1ccc(C)cc1-n1nnc(-c2nc(-c3ccc(C)cc3)no2)c1N,-0.88,/
CC1=C(C(=O)OCC2CCCO2)C(c2ccc(-c3ccccc3)cc2)C2=C(CCCC2=O)N1 (configuration not stated),1.1,-0.97
O=C(C1CC(c2ccc(F)cc2)=NO1)N1CCc2ccccc2C1 (configuration not stated),0.23,-0.42

# The list goes on; it opens with the 4 that closed the last part.
SMILES,TAR Tat displ,CDC25B-CDK2 inh
CCOC(=O)c1cc2ccccc2[nH]1,1.6,-0.46
COc1ccc(C)cc1-n1nnc(-c2nc(-c3ccc(C)cc3)no2)c1N,-0.88,/
CC1=C(C(=O)OCC2CCCO2)C(c2ccc(-c3ccccc3)cc2)C2=C(CCCC2=O)N1 (configuration not stated),1.1,-0.97
O=C(C1CC(c2ccc(F)cc2)=NO1)N1CCc2ccccc2C1 (configuration not stated),0.23,-0.42
CCCCCCC(=O)Nc1ccc2nc3c(=O)n(C)c(=O)n(C)c3nc2c1,0.48,-0.85
CCOc1ccc(C2C(C(=O)OCc3ccccc3)=C(C)N=C3SC(C)C(=O)N32)cc1OCC (configuration not stated),1.6,0.67
CSc1cccc(NS(=O)(=O)c2cc(-c3ccc(=O)[nH]n3)ccc2C)c1,0.98,-1.9
COC(=O)c1cc(Br)cc(Br)c1,/,-0.94
COc1cc(S(=O)(=O)NCCCN2CCOCC2)ccc1-n1cnnn1,-0.41,-1.7
O=C1CCCN2N=C(SCC(=O)Nc3nccs3)SC2=N1,/,-0.47
c1ccc(CN2CCC(Nc3nc4ccccc4n4nnnc34)CC2)cc1,-6,0.18
Cc1cccc(-n2nnc(-c3nc(-c4ccc5c(c4)OCO5)no3)c2N)c1,1.5,/
COc1cc(C(CC(=O)O)CC(=O)Nc2ccc(C)cc2)cc(OC)c1OC (configuration not stated),/,-1.5
COC(=O)COc1ccc(C2C(C(=O)OC)=C(C)NC3=C2C(=O)c2ccccc23)cc1 (configuration not stated),0.46,-1.4
O=C(CCc1nc2sc3c(c2c(=O)[nH]1)CCCCC3)NCc1cccnc1,1.3,/
Cc1ccccc1Cc1c(C)[nH]n(-c2nc3ccccc3[nH]2)c1=O,0.74,/
Cn1c(N2CCCC(C(=O)O)C2)nc2ccccc21 (configuration not stated),1.5,-0.19
CCOC(=O)CC1(N)CCCCC1,0.13,/
CC12CCC(C(=O)N3CCN(C(=O)C45CCC(C)(C(=O)O4)C5(C)C)CC3)(OC1=O)C2(C)C,/,0.43
COC(=O)c1onc(C(=O)c2ccccc2)c1C(=O)OC,1.4,/
Cn1c2c(c(=O)[nH]c1=O)C(c1ccc(O)cc1)C1=C(N2)c2ccccc2C1=O (configuration not stated),3.2,-3.3
COc1ccc(-c2noc(C(C)Oc3cccc(Cl)c3)n2)cc1 (configuration not stated),-0.53,-0.8
CCOc1c(N2CCC(c3cc(OC)ccc3OC)C2)c(=O)c1=O (configuration not stated),-0.11,/
CCn1c(=O)oc2cc(NS(=O)(=O)c3cc(Br)cc4c3N(C(C)=O)CC4)ccc21,-0.45,/
Cc1cc2oc(C(=O)Nc3ccc4nsnc4c3)cc(=O)c2cc1Cl,-0.16,-0.31
CCCc1nc(SCC(=O)N2CCCC2)c2c(=O)n(C)c(=O)n(C)c2n1,0.51,/
O=C(CSC1=NC2(CCCC2)N=C1c1ccccc1)Nc1ccc2c(c1)OCCO2,/,-0.7
S=C(NNC(=S)Nc1ccc2c(c1)OCCO2)NNc1ccccc1,/,-3.1
Cc1cc2[nH]c(=O)c(=O)[nH]c2cc1S(=O)(=O)N1CCCc2ccccc21,1.5,/

# Four entries drawn at random from the list so far:
SMILES,TAR Tat displ,CDC25B-CDK2 inh
O=C(CSC1=NC2(CCCC2)N=C1c1ccccc1)Nc1ccc2c(c1)OCCO2,/,-0.7
CCn1c(=O)oc2cc(NS(=O)(=O)c3cc(Br)cc4c3N(C(C)=O)CC4)ccc21,-0.45,/
CSc1cccc(NS(=O)(=O)c2cc(-c3ccc(=O)[nH]n3)ccc2C)c1,0.98,-1.9
Cn1c(N2CCCC(C(=O)O)C2)nc2ccccc21 (configuration not stated),1.5,-0.19

# In a second layout: results already given.
# The line under a structure holds: TAR Tat displ, CDC25B-CDK2 inh
> Cc1ccccc1Cc1c(C)[nH]n(-c2nc3ccccc3[nH]2)c1=O
    0.74, /
> Cc1cccc(-n2nnc(-c3nc(-c4ccc5c(c4)OCO5)no3)c2N)c1
    1.5, /
> CCn1c(=O)oc2cc(NS(=O)(=O)c3cc(Br)cc4c3N(C(C)=O)CC4)ccc21
    -0.45, /
> CC12CCC(C(=O)N3CCN(C(=O)C45CCC(C)(C(=O)O4)C5(C)C)CC3)(OC1=O)C2(C)C
    /, 0.43

# Continued.
SMILES,TAR Tat displ,CDC25B-CDK2 inh
COc1nccn(-c2ccc(Br)c(C)c2)c1=O,0.48,-1.2
CC1CCN(C(=O)CSc2ccc(-c3ccncc3)nn2)CC1,0.97,/
CC1Cc2ccccc2N1S(=O)(=O)c1cc2c3c(c1)CC(=O)N3CCC2 (configuration not stated),2.3,/
N#C/C(=C\c1cccs1)C(=O)NCCc1c[nH]c2ccccc12,/,-1.2
CN1CCN(CC(=O)c2ccc3cc[nH]c3c2)CC1,0.47,-2.1
Cc1[nH]nc(N)c1-c1ccc(Cl)cc1,1.7,/
O=C(CN1N=NC2C(=O)N(c3ccc(F)cc3)C(=O)C21)Nc1cc(F)ccc1F (configuration not stated),1.5,/
COC(=O)c1cc(S(=O)(=O)Nc2cccc(OC)c2)c[nH]1,1.3,/
COC(=O)c1cnn2c(C(F)(F)F)cc(-c3ccco3)nc12,-3.2,/
CC1CCCCN1C(=O)Cn1c(=O)oc2cc(S(=O)(=O)N3CCc4ccccc43)ccc21 (configuration not stated),/,-1.3
Cc1cccc(NS(=O)(=O)c2ccc3c(c2)S(=O)(=O)N=CN3)c1,0.83,/
COc1cc(C)c(Cl)cc1S(=O)(=O)N1CCN(c2cc(N3CCCC3)nc(C)n2)CC1,0.69,0.05
CN1C(=O)c2ccccc2C(C(=O)NCCc2ccsc2)C1c1cccs1 (configuration not stated),2.1,/
CC1CC(C)CN(S(=O)(=O)c2ccc3c(c2)oc(=O)n3CC(=O)NCc2cccs2)C1 (configuration not stated),-0.24,-0.74
Fc1cccc(NCc2cccn2-c2nnc(N3CCCCC3)s2)c1,0.93,/
O=C(CCc1nnc2ccc(N3CCCC3)nn12)N1CCc2ccccc2C1,0.65,/
Cc1ccc(CNC(=O)Cn2nc(C)c3nn(-c4ccc(Cl)cc4)c(C)c3c2=O)o1,2.6,/
O=C1C(=O)N(CCCn2ccnc2)C(c2ccncc2)/C1=C(\O)c1ccc(Cl)cc1 (configuration not stated),0.13,-1.2
Cc1ccc(N2C(=O)C3ON(c4ccccc4)C(c4cccnc4)C3C2=O)cc1 (configuration not stated),-0.59,-2
Cc1ccc(S(=O)(=O)c2nc(S(C)(=O)=O)sc2N2CCC(O)CC2)cc1,-0.01,-1.1
CCOc1ccc(C2c3c(-c4cc(C)ccc4O)n[nH]c3C(=O)N2Cc2ccco2)cc1OCC (configuration not stated),1.2,0.9
CC1=C(C(=O)OCC(C)C)C(c2ccc(N(C)C)cc2)C2=C(CC(c3ccccc3)CC2=O)N1 (configuration not stated),-0.39,-1.9
CC(C)CN1CC(O)=C(c2nc3ccccc3s2)C1=N,1.3,-2.3
N#CC1=C2N=C(N)c3ccccc3N2C2=C(C(=O)CC(c3ccccc3)C2)C1c1cccs1 (configuration not stated),1.5,-1.2
O=C(CCSc1nc(-c2ccco2)cc(C(F)(F)F)n1)NC1CCCCC1,0.05,-1.8

# In another format: results already given.
Cc1ccc(S(=O)(=O)c2nc(S(C)(=O)=O)sc2N2CCC(O)CC2)cc1
- TAR Tat displ: -0.01
- CDC25B-CDK2 inh: -1.1

CCOc1ccc(C2c3c(-c4cc(C)ccc4O)n[nH]c3C(=O)N2Cc2ccco2)cc1OCC (configuration not stated)
- TAR Tat displ: 1.2
- CDC25B-CDK2 inh: 0.9

CC1=C(C(=O)OCC(C)C)C(c2ccc(N(C)C)cc2)C2=C(CC(c3ccccc3)CC2=O)N1 (configuration not stated)
- TAR Tat displ: -0.39
- CDC25B-CDK2 inh: -1.9

# Later entries:
SMILES,TAR Tat displ,CDC25B-CDK2 inh
CSc1nnc2c(n1)OC(c1ccc(F)cc1)N(C(C)=O)c1ccccc1-2 (configuration not stated),0.04,0.65
COc1cc(C2C(C#N)=C(N)Oc3c2ccc2ccccc32)ccc1O (configuration not stated),0.63,-0.96
Cc1ccc2nc(NCCCN3CCN(c4cc(Cl)ccc4C)CC3)c3nnnn3c2c1,-0.56,/
Cc1sc2c(=O)n3c(nc2c1C(=O)NC1CCCCC1)CCCCC3,-0.06,0.88
CCOC(=O)c1cnc2c(cnn2CC)c1NN=C(C)C,/,-0.98
O=c1oc(-c2ccco2)nc2cccc(F)c12,/,-1.3
C[n+]1cccc(C(=O)O)c1,1.3,/
OC(CNCc1ccc2c(c1)OCO2)CSc1cccs1 (configuration not stated),/,-0.55
Cc1cc(NC(=O)NNc2ccccc2)no1,/,-1.2
CCn1c(SCC(=O)NC2CCCCC2)nnc1-c1nonc1NC(C)=O,-0.12,-2.3
Cc1ccccc1COc1ccc(C2CC(=O)Nc3c2c(C)nn3-c2ccc3nnc(C)n3n2)cc1 (configuration not stated),-0.3,/
CCN1CCN(c2c(S(=O)(=O)c3ccc(C)cc3)cnc3ccc(Cl)cc23)CC1,0.55,-1.1
CCN(CCCNc1ncnc2onc(C)c12)Cc1ccccc1,0.89,/
Fc1ccc(-c2csc3ncnc(NCC4CCCO4)c23)cc1 (configuration not stated),-0.09,/
COc1ccccc1-c1nnc2ccc3ccccc3n12,1.5,-0.98
CN1CCN(C2=Nc3ccccc3Oc3ccc(Cl)cc32)CC1,0.52,-1.1
CCN1CCN(c2nc(N)c([N+](=O)[O-])c(Nc3ccc(C)cc3)n2)CC1,-0.18,/
Cc1ccc(S(=O)(=O)N=S(c2ccc(C(=O)O)cc2)c2ccc(C(=O)O)cc2)cc1,/,-1.4
Cc1ncc(-c2ccc(S(=O)(=O)NCCc3ccccc3)cc2)o1,1,/
CCCCNC(=O)C1CCC(CNc2c(N3CCCC3)c(=O)c2=O)CC1 (configuration not stated),1.2,-0.64
O=C(NC1CC1)c1c2c(nc3ccccc13)C(=O)N(C1CCCCC1)C2,-0.65,-0.45
COC(=O)c1ccccc1Sc1ccc([N+](=O)[O-])cc1,/,-1.9
CC1(C)Cc2sc3c(=O)n(-c4ccc(Cl)cc4)c(=O)[nH]c3c2CO1,-0.96,-2
CCOCCCNc1nc2ccccc2c2nc(-c3ccccc3)nn12,-1.4,-0.03
c1ccc(-c2cc3c(nn2)CCc2nonc2-3)cc1,/,-1.5
SMILES,TAR Tat displ,CDC25B-CDK2 inh
COc1ccc(-c2noc(N3CCN(Cc4ccccc4)CC3)n2)cc1OC,0.18,/
Cc1ccc(Cn2c(C)c(CNCc3ccc4c(c3)OCO4)c(C(=O)O)c2C)cc1,-0.71,0.26
CCCNC(=O)c1cnn2c(C)cc(C)nc12,0.42,/
O=C1c2cccc3cccc(c23)C(=O)N1Cc1ccco1,0.92,0.18
CC1SC(c2cccnc2)N(c2ccc(F)cc2F)C1=O (configuration not stated),/,-2.8
CCN1CCN(CCCNC(=O)c2oc3ccc4c(c3c2C)C(O)CC(C)(C)O4)CC1 (configuration not stated),0.4,/
O=C(CC1SC2=NCCN2C1=O)Nc1ccccc1 (configuration not stated),/,-0.26
Cc1nn(CC(=O)NCCC(C)C)c(=O)c2cc3occc3n12,2.8,-0.94
CCN1CCN(S(=O)(=O)c2ccc3c(c2)NC(=O)CS3)CC1,2.9,/
CCCCN1C(=O)c2cc(C(=O)NC(C)C)nn2CC1(C)C(=O)NC1CCCC1 (configuration not stated),-0.22,/
CCOC(=O)Cn1c2ccccc2n2nc(C)c(=O)nc12,-0.07,-1.6
Cc1cc(N2CCN(c3ccc(F)cc3)CC2)n2nc(-c3ccco3)nc2n1,0.85,/
CCOC(=O)c1cc(S(=O)(=O)NC2CCCCC2)cn1C,2.1,1.1
